LANA-H2A inh = blocks KSHV LANA binding to histone H2A/H2B; 0.6% of 320,000 active; cell-free LANA-H2A/H2B peptide, fluorescence polarization; inhibition, % (test concentration not listed); Q9QR71; AID 2629; in the data active means inhibition mostly above about 10%, no sharp cut-off; inactive means mostly below about 6.7%;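 further: stock transfer was 7.5 nL into about 10 µL; 0% = median of vehicle wells and 100% = median of positive control wells; one replicate is shown; the record names a cut of 25% in any replicate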
ALR inh = blocks human ALR sulfhydryl oxidase activity; P55789; AID 485317; inhibition, % (concentration not given with the values); 3.8% of 290,000 active; purified ALR, DTT oxidation, H2O2 HRP-luminol luminescence;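 active means mean and each replicate at 75% or more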;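 further: stock transfer was 7.5 nL into about 7.5 µL; 0% = neutral wells and 100% = wells with inactivated enzyme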
Target sequence (P55789 whole entry, looked up): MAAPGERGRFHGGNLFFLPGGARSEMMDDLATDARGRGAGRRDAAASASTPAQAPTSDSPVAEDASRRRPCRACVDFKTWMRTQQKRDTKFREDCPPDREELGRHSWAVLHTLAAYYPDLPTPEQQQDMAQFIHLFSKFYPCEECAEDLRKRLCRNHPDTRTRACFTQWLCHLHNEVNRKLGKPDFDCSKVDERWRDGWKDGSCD
HNF4A DNA FP = change in binding of human HNF4 alpha to DNA; P41235; HNF4a-FITC DNA binding, fluorescence polarization, 1 h; activity change, % at 10 µM; 0.3% of 360,000 active; AID 1224865; in the data active means activity change above about 30%, passing the limit was not always enough;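 further: controls were the assay level and a saturating level of protein; the project sought stronger binding though the title names inhibitors; some compounds called inactive have numbers as strong as hits; positive values seem to mean higher polarization but the record does not say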
Target sequence (P41235 whole entry, looked up): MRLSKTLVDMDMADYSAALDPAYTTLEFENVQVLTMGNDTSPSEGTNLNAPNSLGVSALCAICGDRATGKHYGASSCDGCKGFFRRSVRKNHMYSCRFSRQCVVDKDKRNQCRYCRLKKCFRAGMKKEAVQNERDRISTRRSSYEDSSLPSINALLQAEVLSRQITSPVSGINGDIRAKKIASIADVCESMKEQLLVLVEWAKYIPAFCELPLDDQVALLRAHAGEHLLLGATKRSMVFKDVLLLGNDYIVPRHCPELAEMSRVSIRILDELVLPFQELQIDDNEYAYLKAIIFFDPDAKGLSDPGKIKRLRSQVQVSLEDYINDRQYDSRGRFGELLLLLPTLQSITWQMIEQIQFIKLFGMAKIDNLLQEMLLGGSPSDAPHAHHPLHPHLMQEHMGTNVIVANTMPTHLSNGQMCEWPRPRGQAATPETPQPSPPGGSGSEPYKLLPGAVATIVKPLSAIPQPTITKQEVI
E coli growth = E. coli growth inhibition; OD600 absorbance (test concentration not listed); 0.21% of 330,000 active; Escherichia coli growth, OD600, 23 h; hits give low values; AID 1053175;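 active means OD600 absorbance below the run mean of sample wells minus 3.6 SD, in any replicate, cut at about 0.56 in these data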;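 further: stock transfer was 300 nL into about 60 µL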
UCH37 inh = human UCH37 deubiquitinating enzyme inhibition; Q9Y5K5; purified proteasome/UCH37, Ub-AMC cleavage fluorescence; inhibition, % (no concentration beside the values); 0.33% of 330,000 active;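 active means mean of two replicates above 20%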;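 further: 0% = compound-free wells with enzyme and 100% = wells lacking proteasome; stock transfer was 100 nL into about 20 µL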
Target sequence (Q9Y5K5 whole entry, looked up): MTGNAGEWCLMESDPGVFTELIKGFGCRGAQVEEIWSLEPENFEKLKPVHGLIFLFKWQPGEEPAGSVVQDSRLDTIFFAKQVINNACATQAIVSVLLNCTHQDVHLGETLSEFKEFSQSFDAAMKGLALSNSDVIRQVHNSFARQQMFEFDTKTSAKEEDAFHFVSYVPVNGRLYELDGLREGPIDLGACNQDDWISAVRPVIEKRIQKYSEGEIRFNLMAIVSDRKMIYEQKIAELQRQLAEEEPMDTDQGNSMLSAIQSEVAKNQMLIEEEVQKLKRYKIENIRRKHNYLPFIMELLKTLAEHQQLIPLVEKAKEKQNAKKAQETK
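Material: human UCH37 enzyme supplied as purified proteasome complex. Measure: % inhibition of Ub-AMC cleavage fluorescence. Medium: pH 7.4 Tris-HCl (50 mM) with ovalbumin, ATP-MgCl2, DTT. Times: 30 min preincubation with enzyme, 25 min cleavage at room temperature. Detection: AMC fluorescence intensity at 355/460 nm.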
FGF22 binding = shifts melting point of recombinant human FGF22. 1.5% of 340,000 active. calls only at 9.99 µM. recombinant FGF22 thermal shift, SYPRO orange fluorescence; percent of sucrose octasulfate shift, DMSO zero. Q9HCT0;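 active means melting point raised past a set limit in the mean and every replicate; three in four hits are not shown here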
Beta2AR agonist = activates human beta-2 adrenergic receptor causing internalization | AID 504454 | 0.43% of 340,000 active | response, % (no concentration beside the values) | Am2.2-beta2AR cells, FAP receptor internalization, flow cytometry; reference of the scale not given here;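 active means response above a set limit, near 3 SD of response in nonfluorescent compounds, cut at about 42% in these data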;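 further: stock transfer was 100 nL into about 11 µL; a reference agonist was the positive control; negative values mostly stem from fluorescent compounds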
Active calls of the source: *; i = inactive; . = not tested or not shown.

#	canonical_smiles	LANA-H2A inh	ALR inh	HNF4A DNA FP	E coli growth	UCH37 inh	FGF22 binding	Beta2AR agonist
1	COc1ccc(-c2cc(-c3ccccc3)c(C#N)c(=S)[nH]2)cc1	-5.0	12	0.4	0.68	3.1	i	0
2	O=C(COc1ccccc1)NNC(=S)NC(=O)c1ccc(Cl)cc1Cl	1.4	0	.	0.66	0.6	.	.
3	COCc1cc(C)nc(N2CCCCC2)c1C#N	0.0	-3	-3.4	0.68	-110	.	-1
4	CCOC(=O)C1Sc2ccccc2NC1=O (centres undefined)	3.9	49	1.7	0.71	2.5	i	5
5	Cc1cc(C)c(OCC(=O)OCCNC(=O)c2cccnc2)c(C)c1	.	.	2.2	0.7	1.7	.	-2
6	NC1=NC(=O)C2(COC(c3ccncc3)OC2)S1 (centres undefined)	-3.4	0	-2.2	0.68	1.3	i	-3
7	O=C(Nc1nccs1)c1cn2ccccc2n1	-1.7	-10	0.2	0.67	3.1	i	-12
8	Cc1cc(C)c2[nH]c(=O)c(C(c3nnnn3C(C)(C)C)N3CCN(C(=O)c4ccco4)CC3)cc2c1 (centres undefined)	3.2	-4	0.8	0.7	-26	.	-5
9	Cc1cc(C)cc(OCCN2CCOCC2)c1	-9.1	-1	0.9	0.69	-1.5	i	0
10	O=C(O)c1cc(-c2c[nH]c3ccccc23)nc2cc3ccccc3cc12	-5.9	-20	12	.	.	i	3
11	CCCc1nc2n[nH]c(N)c2c2c1CCC2	1.4	3	2.0	0.78	3.5	.	5
12	CCCOc1ccc(S(=O)(=O)N2CCOCC2)cc1[N+](=O)[O-]	-0.9	.	-2.5	0.66	0.6	i	-4

Reformatted in transposed form: two of the compounds above
9: Cc1cc(C)cc(OCCN2CCOCC2)c1
10: O=C(O)c1cc(-c2c[nH]c3ccccc23)nc2cc3ccccc3cc12
Screen / compound no. | 9 | 10
LANA-H2A inh | -9.1 | -5.9
ALR inh | -1 | -20
HNF4A DNA FP | 0.9 | 12
E coli growth | 0.69 | .
UCH37 inh | -1.5 | .
FGF22 binding | i | i
Beta2AR agonist | 0 | 3

Other records:
#	canonical_smiles	LANA-H2A inh	ALR inh	HNF4A DNA FP	E coli growth	UCH37 inh	FGF22 binding	Beta2AR agonist
13	CS(=O)(=O)N(Cc1ccc(C(=O)NN=C2CCCCCC2)cc1)c1ccccc1	-1.3	12	-3.3	0.69	-0.6	i	2
14	O=C(NNC(=O)c1ccc(Cl)cc1Cl)c1ccncc1	-1.6	-2	1.9	0.7	-0.8	i	-4
15	CCOCC(=O)Nc1nc2ccc(C)cc2s1	-6.6	97*	-2.4	0.68	-0.1	.	-3
16	COc1ccc(CN2CCC(n3nccc3NC(=O)C3CC3)CC2)cc1O	-0.9	0	1.1	0.71	2.9	i	-3
17	CCOc1cc(S(=O)(=O)NCc2ccccc2)ccc1F	0.0	-1	3.1	0.73	1.0	.	-1
18	COc1cc(C)c(C(C)C)cc1S(=O)(=O)NC1CC(C)(C)NC(C)(C)C1	1.2	-1	-0.3	.	.	i	-9
19	C=CCn1c(-c2ccncc2)n[nH]c1=S	-1.0	1	2.0	0.67	4.4	i	-1
20	Cc1nnsc1SC(C)C(=O)O (centres undefined)	-4.2	.	0.1	0.72	2.0	.	3
21	CC1(C)NC(=O)N(CC(=O)OCC(=O)Nc2cc(S(=O)(=O)N3CCCCCC3)ccc2Cl)C1=O	2.9	.	1.3	0.69	2.0	.	1
22	O=C1CC(N2CCN(c3ccccc3)CC2)C(=O)N1c1ccc(Cl)cc1 (centres undefined)	0.8	42	3.1	0.69	-2.8	i	-6
23	CCN1CCN(C(=O)c2ccc(CS(=O)(=O)Cc3ccccc3C)o2)CC1	8.4	10	0.3	0.68	0.4	i	2
24	Cc1cc(N/C(=N/S(=O)(=O)c2ccc(F)cc2)c2ccccc2)n(-c2ccccc2)n1	2.4	-6	-2.5	0.71	3.0	i	-18
25	Nn1c(=S)[nH]c2sc3c(c2c1=O)CCCC3	0.2	27	-1.9	0.66	10	i	3
26	CCCC(CCC)C(=O)Nc1ccc2c(c1)N(C(=O)CN1CCN(C)CC1)c1ccccc1CC2	-0.3	0	-3.0	0.7	4.5	i	5
27	CC(=O)c1c(C)nc(-c2ccccc2)nc1NC(=O)C(C)C	-2.6	1	-0.1	0.71	4.2	.	-2
28	CCOC(=O)c1nnn(-c2nc(N3CCCC3)nc(N3CCCC3)n2)c1-c1ccccc1	2.6	0	3.9	0.72	1.0	.	-12
29	CC1(C)NC(=O)N(CC(=O)OCC(=O)Nc2cc(S(=O)(=O)N3CCCCC3)ccc2Cl)C1=O	0.9	4	3.4	0.62	2.5	.	5
30	COC(=O)CNC(=O)COC(=O)c1cc(F)c(F)cc1Cl	-9.2	2	-0.3	0.72	3.3	.	2
31	COc1ccc(/C=C\c2onc(C)c2S(=O)(=O)N2CCC(C(=O)NCCC(C)C)CC2)cc1	5.8	-4	1.3	.	-6.5	i	-2
32	Cc1[nH]c(C)c(S(=O)(=O)N2CCN(c3ccccc3)CC2)c1C(=O)N1CCCC1	-3.5	75	-0.2	0.71	2.6	i	3
33	O=C(COC(=O)c1cccnc1Cl)c1ccc2c(c1)OCCO2	-1.3	-3	3.3	0.67	3.6	i	1
34	COc1ccc(C(=O)NCC(c2cccnc2)N2CCN(c3ccc(F)cc3)CC2)cc1OC (centres undefined)	0.6	86*	0.4	0.71	3.2	i	-9
35	CC(=O)N1N=C(c2ccc(Cl)cc2)CC1c1ccco1 (centres undefined)	-0.2	.	-0.5	0.6	3.3	i	-3
36	O=C(NCCS(=O)(=O)N1CCN(c2ccccc2F)CC1)c1ccc2c(c1)OCO2	-1.1	0	5.5	0.69	-0.5	i	-3
37	COc1cccc(CNC(=O)CN2C(=O)c3ccccc3S2(=O)=O)c1	4.7	-12	-0.4	0.64	3.2	i	4
38	O=c1cc[nH]c2c1ccc1cccnc12	1.9	4	-0.4	0.67	3.8	i	-3
39	O=C(c1ccco1)N1CCN(S(=O)(=O)c2ccccc2[N+](=O)[O-])CC1	-2.6	-1	-1.8	0.68	-0.4	i	-1
40	Cc1cc(NC(=O)CSc2nnc(-c3ccc(O)cc3)o2)no1	-3.1	-9	-0.5	0.71	2.9	i	6
41	Cc1nn(-c2ccc(C(=O)O)cc2)c2c1C(=O)CC(C)(C)C2	-3.2	12	-0.4	0.7	1.5	i	-1
42	Cc1cccc(NC(=S)N/N=C2/CCCCc3ccccc32)c1	0.4	-11	-0.9	.	.	.	1
43	COc1ccccc1-c1ccc(SCc2ccc(C)cc2)nn1	0.4	2	-47	0.68	-0.3	i	-1
44	OC(CNC1CCCC1)COc1c(F)cc(Br)cc1F (centres undefined)	-1.4	-17	-0.1	0.69	1.9	.	-2
45	CN(CCCN1c2ccccc2CCc2ccccc21)CC(=O)c1ccc(Cl)cc1	3.0	98*	.	.	4.3	.	.
46	O=C(/C=C/c1ccccc1)NCCSCc1ccccc1	-0.7	1	-1.3	0.66	0.6	.	-1
47	N#CCSc1nc2c(c(C3CC=CCC3)c1C#N)CCC2 (centres undefined)	-3.3	-10	0.6	0.65	1.5	.	13
48	O=C(CN1C(=O)NC2(CCCCC2)C1=O)Oc1ccc2c(C(F)(F)F)cc(=O)oc2c1	3.8	6	-17	.	.	i	5
49	Cn1c2c(c(=O)n(C)c1=O)C(c1ccccc1Cl)CC(=O)N2 (centres undefined)	-1.0	-8	1.2	0.74	5.0	i	-1
50	S=C(Nc1cccnc1)N1CCc2ccccc21	0.7	16	1.3	0.6	3.6	i	-2
51	Cc1nn(CC(=O)Nc2ccc(N3CCOCC3)cc2)c(C)c1Cl	2.0	14	1.3	0.66	1.0	i	3
52	CC(C)(C)c1nc(SCC(=O)Nc2ccc(N3CCOCC3)cc2)c2ccccc2n1	1.0	98*	-2.8	0.73	1.9	.	-12
53	Cc1cccc(CN2CCC(C(N)=O)CC2)c1	0.9	-2	-1.5	0.64	-0.1	i	-3
54	N#C/C(=C\c1c(F)cccc1Cl)c1nn(-c2ccccc2)c(-n2cccc2)c1C#N	3.6	-3	-0.4	.	.	i	8
55	CCCCC(CCC(=O)O)(C(=O)OCC)c1csc(Nc2ccc(C)cc2)n1 (centres undefined)	4.9	99*	-0.3	0.66	2.8	i	1
56	COc1ccc(NC(=O)c2cc(=O)c3ccccc3o2)cc1Cl	0.5	.	0.0	0.62	0.7	i	0
57	O=C(c1cc2ccccc2oc1=O)N1CCSC1c1ccco1 (centres undefined)	0.2	0	19	0.75	-0.2	.	-4
58	Cc1nn(C)c(C(=O)Nc2ccc(Br)cc2F)c1Br	0.8	-6	-1.6	0.7	1.1	.	0
59	CCOc1ccc(CNC(=O)c2cccc(NC(=O)C3=C(C)OCCS3)c2)cc1	7.7	-9	-2.2	0.61	3.9	i	-2
60	O=C(Nc1cccc(S(=O)(=O)NC2=NCCC2)c1)c1ccc(OC(F)F)cc1	.	.	0.3	0.7	0.8	i	3
61	Cc1cc(C)cc(NC(=S)NN)c1	-0.4	-4	0.6	.	.	i	1
62	O=C(CCS(=O)(=O)c1ccccc1)Nc1ccc(N2CCN(Cc3ccccc3)CC2)cc1	1.1	40	-4.4	0.64	0.6	i	-1
63	CCCCN(C(=O)c1cccc(-n2cccc2)c1)c1c(N)n(Cc2ccccc2)c(=O)[nH]c1=O	-3.2	0	-23	.	.	.	3
64	O=C(CSc1ccccc1)Nc1ccccc1C(=O)O	-3.4	35	4.5	0.67	2.1	.	4
65	COc1ccccc1CN1CC(C(=O)NCCc2cn[nH]c2)CCC1=O (centres undefined)	-2.1	-1	2.1	0.69	1.0	i	-4
66	COc1ccc(Br)cc1S(=O)(=O)NCCCN1CCOCC1	1.6	-3	-2.2	0.65	0.0	i	2
67	CCc1c(C)sc(NC(=O)Cc2ccccc2OC)c1C(=O)N1CCOCC1	-0.6	-17	-2.4	0.69	-1.5	i	1
68	O=C1CSC(c2ccc(Cl)cc2)N1 (centres undefined)	-6.3	66	0.8	0.73	5.2	.	3
69	Cc1cc(C)nc(NC(=O)c2cccc([N+](=O)[O-])c2)c1	-6.4	1	-0.8	0.7	2.0	i	-9
70	Cc1ccc2cc(C#N)c(N3CCN(C(=O)c4ccccc4)CC3)nc2c1	-0.5	-4	3.7	0.66	-33	i	4
71	N#Cc1ccccc1S(=O)(=O)N1CCN(CC(=O)NC(=O)NC2CCCCC2)CC1	-0.1	0	0.5	0.64	1.8	i	-4
72	CC(C)c1ccc(NC(=S)NN2CCN(C)CC2)cc1	0.2	15	-2.2	0.69	3.5	i	5

Next part.
#	canonical_smiles	LANA-H2A inh	ALR inh	HNF4A DNA FP	E coli growth	UCH37 inh	FGF22 binding	Beta2AR agonist
73	Cc1c(C(=O)c2ccc(Cl)c(Cl)c2)cnc2cc3c(cc12)OCO3	-0.4	.	0.4	0.73	1.4	.	-3
74	COc1ccc(OC)c(/C=C/C(=O)OCC(=O)NCc2ccco2)c1	3.7	3	0.6	0.68	-73	i	-4
75	Cc1cccc(-n2nc3c([n+]2[O-])CCc2nonc2-3)c1C	-5.5	1	1.8	0.73	-2.1	.	5
76	COc1ccc(N(CC(=O)N/N=C/c2cccs2)S(=O)(=O)c2ccc(OC)c(OC)c2)cc1	0.8	-6	1.1	.	.	i	-1
77	CCC1(c2ccc(Cl)cc2)NC(=S)N(c2ccccc2)N1 (centres undefined)	-0.7	94*	-1.4	0.65	5.7	i	-7
78	Cc1cccc(CCNC(=O)CCNC(=O)Cn2ccc3ccccc3c2=O)c1	-7.2	0	-0.3	0.67	1.2	.	0
79	Cc1cccc2sc(NC(=O)C3CCCN(S(=O)(=O)c4cccc5nonc45)C3)nc12 (centres undefined)	2.6	0	21	0.79	0.5	.	0
80	CCc1ccc(C(C)NC(=O)COC(=O)c2ccc(-n3cnnn3)cc2)cc1 (centres undefined)	1.8	.	0.2	0.7	2.2	i	-2
81	O=C(O)CCc1ccc(-c2ccc(F)cc2)n1CC1CCCO1 (centres undefined)	37*	24	6.5	0.73	-74	.	-5
82	CCC(C)(C)NC(=O)C(c1ccc(OC)cc1)N(Cc1ccc(OC)cc1)C(=O)CCC(=O)Nc1cc(C)on1 (centres undefined)	3.7	-2	-4.4	0.66	-1.0	i	0

This is a subset (hit frequency here may not be typical).
